CtBP-E1A blk: inhibitors of CtBP/E1A interaction. AlphaScreen GST-E1A/His-CtBP binding, 1536-well; stronger effect = lower value; control for the full effect not named in the record. 340,000 compounds, 0.49% hits. AID 651724. activity change, % (concentration not given with the values); in the data active means activity change below about -65%; inconclusive means about -30% to -65%; inactive means above about -30%; also: % is scaled to controls: 0 for no effect and ±100 for the full control effect
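Steps: dispense buffer (Tris pH 8.0, NaCl 300 mM, TCEP 1 mM, BSA, Tween 20); add 5X protein mix (GST-E1A, His-CtBP, 125 nM each); pin 23 nL compound; 2 h at 37 °C, dark; add 5X beads (50 ug/mL); 1 h; read.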
gsp ag: gsp mutant agonism | gsp mutant cells, cAMP HTRF, 30 min; control for the full effect not named in the record | Potency, µM (titrated, usually from 76.9 µM), for the others: at the top dose activation (cAMP increase), most hits filed as activators | 340,000 compounds, 0.13% hits | AID 624287; active = well fitted activation curve with a large enough effect; inconclusive = small, poorly fitted or top-dose-only effect, or another doubt; inactive = no such curve, though single readings can be large or run the other way; cell line not stated here;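 also: phosphodiesterase inhibitor Ro 20-1724 added with compounds to block cAMP breakdown; potency is read from the fitted curve at half-maximal effect; nearly all actives have a fitted effect of over 60% in size; about a fifth of the inactives were tested at one dose only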
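Cells stably selected in G418 were plated at 2000/well, grown 16-24 hr, then given compounds in DMSO with the PDE inhibitor […] (300 uM solution added) for 30 min at 37C; cAMP was read by HTRF.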
gsp antagonist: antagonists of gsp mutant (McCune-Albright syndrome). gsp-mutant cells, cAMP HTRF, 30 min; control for the full effect not named in the record. Potency, µM (doses to about 76.9 µM), for inactives: top-dose activity change, negative = inhibition, usual class: inhibitors. 340,000 compounds, 0.4% hits; active = falling curve of any shape with a large fitted effect; inconclusive = falling curve, mostly with a smaller effect; inactive = flat or rising curve; cell line not stated here;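 also: intracellular cAMP measured with PDE inhibitor Ro 20-1724 present during compound exposure; potency is read from the fitted curve at half-maximal effect; % is scaled to controls: 0 for no effect and ±100 for the full control effect; nearly all actives have a fitted effect of over 65% in size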
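HTRF cAMP read-out (cAMP-d2 plus anti-cAMP antibody-K in lysis buffer, 30 min RT). Before lysis, cells are exposed to compounds with […] for 30 min at 37C in DPBS containing Ca/Mg, BSA and Tween 20.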
D2 potentiator: potentiates the human D2 dopamine receptor allosterically; DiscoveRx D2 beta-arrestin cells, luminescence, 90 min; 100% = 57 uM dopamine signal; P14416; potentiation, % (test concentration not listed); 360,000 compounds, 0.23% hits; active = potentiation of 50% or more; inconclusive = 30% to 50%; inactive = 30% or less;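 also: compound concentration not given in the record; tested on top of an EC20 dose of dopamine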
Target sequence (P14416 whole entry, looked up): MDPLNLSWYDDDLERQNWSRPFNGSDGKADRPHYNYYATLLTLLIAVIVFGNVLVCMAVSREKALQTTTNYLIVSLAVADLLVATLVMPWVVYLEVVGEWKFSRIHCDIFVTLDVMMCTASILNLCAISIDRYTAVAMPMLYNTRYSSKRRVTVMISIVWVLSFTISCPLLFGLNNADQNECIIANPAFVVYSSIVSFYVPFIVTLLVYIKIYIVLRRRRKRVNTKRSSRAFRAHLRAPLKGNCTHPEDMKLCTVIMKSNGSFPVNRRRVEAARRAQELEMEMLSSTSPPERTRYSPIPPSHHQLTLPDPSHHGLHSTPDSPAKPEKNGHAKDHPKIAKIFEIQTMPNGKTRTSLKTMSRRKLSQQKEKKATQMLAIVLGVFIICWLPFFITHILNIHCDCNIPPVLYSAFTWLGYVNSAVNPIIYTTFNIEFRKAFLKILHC
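PathHunter beta-arrestin assay in DiscoveRx D2 cells. Compounds were added with an EC20 of dopamine (50 nM final) for 90 min at 37 deg C. Luminescence was read 1 h after detection reagent, with 57 uM dopamine as the EC100 control.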
D2 agonist: human D2 receptor agonism in beta-arrestin assay. P14416. DiscoveRx PathHunter D2 beta-arrestin, luminescence, 90 min; 100% = 57 uM dopamine signal. activation, % (test concentration not listed). 360,000 compounds, 0.084% hits. AID 624465; in the data active = activation above about 40%; inconclusive = about 15% to 40%; inactive = below about 15%; also: compound concentration not given in the record; the text of the record calls up to 30% inactive
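DiscoveRx PathHunter D2 beta-arrestin cells (2,100/well) attached overnight, then compound-stimulated 90 min at 37 C in HBSS/10 mM HEPES/0.1% Tween-20 buffer; beta-galactosidase complementation read by luminescence after 1 h at ambient temperature. Dopamine 57 uM final (EC100) as control.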
Six1-Eya2 blk: blocks human Six1 binding to Eya2; Q15475+O00167; AID 651725; activity change, % (no concentration beside the values); AlphaScreen GST-Six1/His-Eya2 binding, biochemical; stronger effect = lower value; control for the full effect not named in the record; 360,000 compounds, 0.56% hits; in the data active = activity change below about -65%; inconclusive = about -30% to -65%; inactive = above about -30%; also: % is scaled to controls: 0 for no effect and ±100 for the full control effect
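GST-Six1 + His-Eya2 (5X stock: 250/500 nM); Tris pH 8.0, 300 mM NaCl, 0.05% BSA, 0.02% Tween 20; GSH donor/Ni acceptor beads; 1 h 37 °C dark; AlphaScreen readout.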
* hit, by the source's call; ? = inconclusive; . = no result given; [ ] = another dose, or the depositor's remark.

| Six1-Eya2 blk | CtBP-E1A blk | gsp antagonist | D2 potentiator | structure | D2 agonist | gsp ag |
| --- | --- | --- | --- | --- | --- | --- |
| -5 | 9 | 3% | -1 | CCc1c(C)nc2c(OC)cccc2c1Cl | -4.0 | -21% |
| -14 | 8 | . | -14 | O=C(NCCNC(=O)c1ccc(-c2cccc(Cl)c2)o1)c1cnccn1 | 1.8 | ? |
| -6 | . | 4% | -1 | Cc1ccc(OCC(O)Cn2c(N3CCCCC3)nc3c2c(=O)[nH]c(=O)n3C)cc1 (stereo not given) | 0.9 | -60%[inhibitor] |
| -2 | 2 | -2% | -1 | COC(=O)c1cc(OC)c(OC)cc1NC(=S)N1CCCCC1 | -0.6 | ? |
| 2 | 4 | 18% | -19 | O=C(Nc1ccc2snnc2c1)N1CCOCC1 | -2.6 | 13% |
| -1 | 3 | 7% | -10 | O=C(Nc1cccc(F)c1)/C(=C\c1ccco1)NC(=O)c1ccco1 | -0.6 | -4% |
| 15 | -5 | -22% | -2 | O=C(Nc1ccccc1)c1nnn(Cc2ccccc2)c1NC(=O)C(F)(F)F | 1.1 | -1% |
| -9 | . | -5% | -4 | O=C(Nc1cccc(S(=O)(=O)N2CCCCC2)c1)c1ccco1 | 1.1 | -14% |
| -17 | . | 0% | -5 | CCC(Cc1ccccc1)NC(=O)C1CCN(c2nn3c(=O)cc(C)nc3s2)CC1 (stereo not given) | 2.5 | 28% |
| 1 | . | 9% | ? | O=C1CCC(=O)N1CC(O)COc1ccccc1 (stereo not given) | 2.4 | -9% |
| -12 | -28 | -22% | -13 | CCn1nc(NS(=O)(=O)c2ccc(C)cc2)c2cc3ccccc3nc21 | -3.9 | ? |
| 9 | -3 | 0% | -6 | Cc1ccc(S(=O)(=O)N2C=CC(C(F)(F)F)=NCC2)cc1 | 0.0 | -19% |
| 15 | . | 5% | -18 | COC(=O)c1cscc1S(=O)(=O)Cc1ccccc1 | -6.4 | -9% |
| 7 | -30 | 20% | -6 | CSc1ccccc1-c1n[nH]c(=S)o1 | 3.4 | 69%[15.4 µM] |
| 1 | . | -3% | -5 | CCCOc1ccc(C2=NNC(=O)CC2)cc1 | -4.6 | -13% |
| 4 | 5 | 23% | -15 | CN(C)C(CNc1ccc(C(F)(F)F)cn1)c1ccccc1 (stereo not given) | -3.9 | 5% |
| -4 | 3 | 9% | -10 | CCOC(=O)c1cccc(NC(=O)COC)c1 | -5.0 | 0% |
| -3 | 5 | 9% | 0 | CN1CCN(CC(=O)Nc2cc(N3CCOCC3)ccc2[N+](=O)[O-])CC1 | -5.8 | -29%[15.4 µM] |
| -1 | -1 | 1% | -1 | S=C(NCc1ccco1)N1CCN(Cc2ccco2)CC1 | 1.2 | -8% |
| 2 | 8 | 16% | -4 | O=C(CCn1c(=O)c2ccccc2n(Cc2ccccc2)c1=O)NC1CCN(Cc2ccccc2)CC1 | -0.8 | 14% |
| 3 | -1 | -13% | -17 | Cc1ccc(NC2CCCN(C(=O)CCc3scnc3C)C2)cc1C (stereo not given) | -2.2 | -4%[15.4 µM] |
| -5 | -1 | -11% | 3 | Cc1c(C(=O)N2CCN(S(=O)(=O)c3ccccc3)CC2)oc2ccccc12 | -4.8 | 23% |
| 0 | 3 | -15% | -11 | COc1ccccc1CNC(=O)c1ccc(OCc2c(C)noc2C)c(OC)c1 | 1.8 | -45% |
| 7 | -5 | -8% | 3 | CCOC(=O)c1c(NC(=O)COC(=O)CCOc2ccccc2C)sc(C(=O)NC)c1C | -0.6 | 21% |
| 2 | -6 | 1% | -3 | CC(=O)Nc1ccc(S(=O)(=O)Nc2nc3ccccc3nc2Nc2ccc(S(N)(=O)=O)cc2)cc1 | -7.9 | 19%[15.4 µM] |
| 2 | 4 | 11% | 3 | OC(C#CCN1CCOCC1)c1cccs1 (stereo not given) | 1.2 | 4% |
| 1 | -6 | 2% | -12 | C#C[C@]1(O)CC[C@H]2[C@@H]3CCc4cc(OC5CCCC5)ccc4[C@H]3CC[C@@]21C | 2.9 | . |
| -5 | 2 | -17% | -10 | Cc1ccc2nc(NC(=O)C3CCCN3C(=O)OC(C)(C)C)sc2c1 (stereo not given) | 2.1 | 5% |
| 20 | 1 | -5% | -15 | Cc1ccc(Cl)cc1NC(=O)CNC(=O)N1CC(=O)Nc2ccccc21 | 2.5 | 13% |
| -20 | -18 | . | -9 | CCc1ccc(C(O)c2ncc(-c3cccc(OC)c3)[nH]2)cc1 (stereo not given) | -6.7 | . |
| 10 | 3 | -3% | -6 | CC(C)n1c(SCC(=O)NC2CC2)nnc1C1CC1 | 0.4 | ? |
| 1 | 1 | -3% | -5 | CC(C)CC(C(=O)N1CCc2ccccc2C1)N1C(=O)c2ccccc2C1=O (stereo not given) | 0.4 | 15% |
| -11 | 2 | -13% | -3 | COc1cccc(C=NNC(=S)NN=Cc2cccc(OC)c2OC)c1OC | 2.8 | 12% |
| -24 | -11 | ? | 4 | CC(C)CC1=NN2C(=N)/C(=C\c3coc4ccccc4c3=O)C(=O)N=C2S1 | 3.5 | -41%[inhibitor] |
| 4 | 4 | . | -2 | CCOc1ccc(N(CC(=O)NCCc2ccccc2)S(=O)(=O)c2ccccc2)cc1 | -2.0 | -7%[15.4 µM] |
| 10 | 7 | ? | 1 | N#Cc1c(/N=C/c2ccco2)oc(-c2ccccc2)c1-c1ccccc1 | -3.1 | -3% |
| -8 | 5 | 14% | 14 | CC(=O)Nc1ccc(NC(=O)C2CC(=O)N(Cc3ccco3)C2)cc1 (stereo not given) | -2.6 | 21% |
| -11 | -19 | -25% | 4 | Cc1cc(C)cc(NC(=O)c2ccc(NC(=O)c3ccco3)cc2)c1 | 3.0 | 5% |
| 1 | -3 | -5% | -15 | CCc1ccccc1OCc1nnc(N)s1 | -4.8 | 34% |
| -1 | . | -5% | -2 | Cc1cc(C)cc(N(CC(=O)NCCSCc2ccccc2)S(C)(=O)=O)c1 | 1.0 | 5%[15.4 µM] |

Entries listed so far that contain a Cl atom, in the order listed:
| Six1-Eya2 blk | CtBP-E1A blk | gsp antagonist | D2 potentiator | structure | D2 agonist | gsp ag |
| --- | --- | --- | --- | --- | --- | --- |
| -5 | 9 | 3% | -1 | CCc1c(C)nc2c(OC)cccc2c1Cl | -4.0 | -21% |
| -14 | 8 | . | -14 | O=C(NCCNC(=O)c1ccc(-c2cccc(Cl)c2)o1)c1cnccn1 | 1.8 | ? |
| 20 | 1 | -5% | -15 | Cc1ccc(Cl)cc1NC(=O)CNC(=O)N1CC(=O)Nc2ccccc21 | 2.5 | 13% |

Further entries follow:
| Six1-Eya2 blk | CtBP-E1A blk | gsp antagonist | D2 potentiator | structure | D2 agonist | gsp ag |
| --- | --- | --- | --- | --- | --- | --- |
| -8 | -1 | -10% | -11 | CCCCC(=O)Nc1ccccc1N1CCN(c2ccc(F)cc2)CC1 | -1.0 | 2%[15.4 µM] |
| -24 | 2 | 3% | 0 | CC(=O)N1N=C(c2cccc(Br)c2)OC12CCCC2 | -3.3 | 11%[15.4 µM] |
| 3 | 2 | . | 2 | CC(=O)Nc1ccc(C(=O)N2CCOCC2c2cc(C(=O)NCc3ccccc3)no2)cc1 (stereo not given) | -5.6 | . |
| 3 | 0 | 18% | -5 | Cc1ccc(CS(=O)Cc2ccc(C(=O)N3CCOCC3)o2)cc1 (stereo not given) | 2.8 | 7% |
| 0 | -14 | . | 0 | CCCCN(C(=O)c1ccc(Cl)c([N+](=O)[O-])c1)c1c(N)n(CCC)c(=O)[nH]c1=O | -2.0 | -10%[15.4 µM] |
| -4 | 0 | 2% | -21 | CN1CCC(=O)N([C@H](CSc2ccccc2)Cc2ccccc2)CC1 | -0.8 | . |
| 2 | 2 | 4% | 15 | O=C(C1CCCCC1)N1CCCn2c1nc1ccccc12 | -1.3 | ? |
| 4 | 1 | 12% | 6 | CCCCCn1c(=O)[nH]c2cc(C(=O)NCc3ccco3)ccc2c1=O | -0.1 | -50%[inhibitor] |
| -2 | -3 | 8% | -1 | O=C(NCCc1c[nH]c2ccccc12)c1ccc(F)cc1F | 4.2 | -8% |
| 3 | 10 | -12% | -3 | O=C(CNC1CCCCCC1)Nc1ccccc1N1CCOCC1 | -4.3 | -14% |
| -1 | 5 | 9% | 1 | COC(=O)c1[nH]c(C)c(/C(O)=C2\C(=O)C(=O)N(CCN(C)C)C2c2cccs2)c1C (stereo not given) | -1.3 | ? |
| -6 | -1 | -1% | 2 | O=C(CSc1nnc(-c2ccccc2O)o1)N1CCCCC1 | 0.7 | 5% |
| 0 | 0 | -12% | -28 | CCOc1cc(/C=C2\CCCC(C(=O)C(F)(F)F)=C2O)ccc1O | -10.0 | -50%[inhibitor] |
| 8 | -15 | . | -9 | O=C(Nc1nc(OCC(F)(F)F)cnc1/C=C\c1ccccc1)c1ccsc1 | -4.6 | . |
| 6 | 4 | -1% | -3 | Cc1nn(C)c(C(=O)NN)c1Cl | -5.0 | 6%[15.4 µM] |
| -1 | -18 | . | -9 | Fc1ccc(-c2nc3ccc(Cl)cn3c2Cc2cccc(F)c2)cc1 | -4.3 | . |
| 0 | 7 | 9% | 17 | NC(=O)c1ccc(Sc2nnc(-c3cccs3)n2CC2CCCO2)c([N+](=O)[O-])c1 (stereo not given) | 6.1 | 0% |
| 3 | -4 | 12% | -13 | COCCN(Cc1ccccc1)C(=O)c1ccc2c(=O)n3c(nc2c1)CCC3 | -2.7 | 16% |
| -12 | -26 | -20% | 22 | Cc1ccc(S(=O)(=O)C(C#N)c2nc3ccccc3nc2N2CCN(C)CC2)cc1C (stereo not given) | 3.5 | ? |
| -1 | -4 | 11% | -7 | Cc1nc2nc(NCc3cccs3)nn2c(C)c1Cl | -1.6 | 13% |
| -1 | 3 | 2% | -6 | CCOC(=O)c1c(C)c(C(=O)NCC2CCCO2)c(C)n1CC (stereo not given) | 1.3 | ? |

Structural class, the compounds so far with a nitro group on carbon.
| Six1-Eya2 blk | CtBP-E1A blk | gsp antagonist | D2 potentiator | structure | D2 agonist | gsp ag |
| --- | --- | --- | --- | --- | --- | --- |
| -3 | 5 | 9% | 0 | CN1CCN(CC(=O)Nc2cc(N3CCOCC3)ccc2[N+](=O)[O-])CC1 | -5.8 | -29%[15.4 µM] |
| 0 | -14 | . | 0 | CCCCN(C(=O)c1ccc(Cl)c([N+](=O)[O-])c1)c1c(N)n(CCC)c(=O)[nH]c1=O | -2.0 | -10%[15.4 µM] |
| 0 | 7 | 9% | 17 | NC(=O)c1ccc(Sc2nnc(-c3cccs3)n2CC2CCCO2)c([N+](=O)[O-])c1 (stereo not given) | 6.1 | 0% |

Rewritten as labelled records: 2 of the compounds above.
> O=C(Nc1nc(OCC(F)(F)F)cnc1/C=C\c1ccccc1)c1ccsc1
  Six1-Eya2 blk = 8; CtBP-E1A blk = -15; gsp antagonist = .; D2 potentiator = -9; D2 agonist = -4.6; gsp ag = .
> Cc1nn(C)c(C(=O)NN)c1Cl
  Six1-Eya2 blk = 6; CtBP-E1A blk = 4; gsp antagonist = -1%; D2 potentiator = -3; D2 agonist = -5.0; gsp ag = 6%[15.4 µM]

Assay outcomes: PubChem, National Center for Advancing Translational Sciences (NCATS)
